Source: PubChem
VDR inhibitor – Inhibitors of the vitamin D receptor (VDR): qHTS. Vitamin D3 receptor (Homo sapiens), P11473. VDR-SRC2-3 peptide fluorescence polarization, 2 h. Potency, µM, for the others: max response, negative = inhibition, actives largely listed as inhibitors. 400,000 tested, 0.93% active. AID 504847, 2011; active = well fitted inhibition curve with a large enough effect; inconclusive = small, poorly fitted or top-dose-only effect, or another doubt; inactive = no such curve, though single readings can be large or run the other way; also: series mostly up to about 120 µM
Target sequence (P11473 whole entry, looked up): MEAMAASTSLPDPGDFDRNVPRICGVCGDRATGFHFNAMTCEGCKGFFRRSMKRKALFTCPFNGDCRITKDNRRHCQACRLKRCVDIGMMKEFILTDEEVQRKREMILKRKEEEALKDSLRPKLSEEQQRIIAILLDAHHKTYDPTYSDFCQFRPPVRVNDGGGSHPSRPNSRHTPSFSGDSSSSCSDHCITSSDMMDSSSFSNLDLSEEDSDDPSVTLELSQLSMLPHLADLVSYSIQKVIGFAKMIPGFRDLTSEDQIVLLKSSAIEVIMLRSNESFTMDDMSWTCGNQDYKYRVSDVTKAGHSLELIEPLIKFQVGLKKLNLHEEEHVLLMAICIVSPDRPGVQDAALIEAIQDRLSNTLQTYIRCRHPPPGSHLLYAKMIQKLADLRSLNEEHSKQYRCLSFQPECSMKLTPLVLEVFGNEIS
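Inhibition of the VDR/SRC2-3 peptide interaction is quantified by fluorescence polarization. Compounds (23 nl, pintool) incubate with the reagents for 2 hours at ambient room temperature.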
* = called active by the depositor; u = inconclusive; & = joins results of further samples. % is scaled to controls: 0 for no effect and ±100 for the full control effect; potency is read from the fitted curve at half-maximal effect. Some of the compounds tested; rates above refer to the full screens.

VDR inhibitor | Molecule
1% | CC(C)(C)OC(=O)N1CCC(c2nnc(SCc3ccccc3Cl)o2)CC1
-19% | CN(NC(=O)c1ccccc1F)c1ncccc1[N+](=O)[O-]
2% | CCC1CCc2c(sc(NC(=O)C3c4ccccc4Oc4ccccc43)c2C(N)=O)C1 (configuration not stated)
4% | CCCCn1nc(C(=O)Nc2ccc(-n3cnnn3)cc2)c2ccccc2c1=O
-10% | COc1ccc(S(=O)(=O)N2CCCCCC2)cc1C(=O)N1CCCC(C(F)(F)F)C1 (configuration not stated)
-3% | COc1cccc(NC(=O)CCN2CCOCC2)c1
-15% | COc1ccccc1NC(=O)Cn1cnc2sc(C)c(S(=O)(=O)N3CCCCC3)c2c1=O
-12% | COc1ccc(CCNC(=O)C(=O)NCC2CCCN2S(=O)(=O)c2cccs2)cc1 (configuration not stated)
-8% | O=C1c2cccc3cccc(c23)C(=O)N1/N=C/c1ccc(O)cc1O
9% | CCOC(=O)c1c(NC(=O)c2ccc(S(=O)(=O)N3CCOCC3)cc2)sc2c1CCN(C)C2
-8% | COc1ccc(C(=O)Nc2cc(C)c(O)c(-c3nc4ccccc4s3)c2)cc1OC
-17% | CC1CCCC(NC(=O)COC(=O)c2c[nH]c(=O)[nH]c2=O)C1C (configuration not stated)
-25% | CC(C)(C)NC(=O)NCC1CCCC1NC(=O)NC(C)(C)C (configuration not stated)
0% | CCOc1ccc(N(CC(=O)Nc2ccccc2OC)S(C)(=O)=O)cc1
13% | COc1ccc(OCc2cc(C(=O)N3CCCC3)no2)c2ccccc12
16% | C=CCNC(=O)c1cc(-c2ccc(Br)cc2)on1
16% | CCOC(=O)C1(Cc2cccc(OC)c2)CCCN(S(=O)(=O)N(C)C)C1 (configuration not stated)
-12% | O=C(NCc1cccc(F)c1)c1cccc(OC2CCN(C(=O)C3CC3)CC2)c1
-18% | COC(=O)Cn1c(=O)c(C)nc2ccccc21
3% | Cc1ccccc1NC(=O)NCc1cccnc1
-11% | Cc1nn(C(C)C(=O)NC2CCCCCC2)c(=O)c2nn(-c3ccccc3)c(C)c12 (configuration not stated)
11% | CC1(C)CC(N=c2cc(-c3ccccc3)oc3ccc(Cl)cc23)CC(C)(C)N1
0% | CCCOC(=O)Nc1nc2ccccc2o1
-8% | O=C(NCCCN1CCOCC1)c1cc(S(=O)(=O)N2CCOCC2)ccc1Cl
-17% | N#Cc1nc(-c2cccs2)oc1NCCN1CCOCC1
12% | CC(C)Oc1ccc(C(=O)Nc2c3c(nn2C(C)(C)C)CS(=O)(=O)C3)cc1
-3% | COC(=O)CN(C#N)c1nc(NC(C)C)nc(OC)n1
-26% | O=C1N=NC(=O)N1c1ccccc1
6% | Cc1noc(C)c1COc1ccccc1C(=O)N(C)CC(=O)Nc1ccc(Cl)c(Cl)c1
16%&-10% | Cc1ccc(NC(=O)C2CCCN2S(=O)(=O)c2ccc3c(c2)n(C)c(=O)c(=O)n3C)cc1 (configuration not stated)
-10% | CC(C)Cc1cc(C(=O)N2CCCC(C(=O)c3cc(F)ccc3F)C2)no1 (configuration not stated)
-14% | O=c1oc2ccccc2c(NC2CCCCC2)c1NS(=O)(=O)c1ccc(Cl)cc1

6 entries already listed, sorted by number of heavy atoms, low to high.
VDR inhibitor | Molecule
-3% | COC(=O)CN(C#N)c1nc(NC(C)C)nc(OC)n1
-17% | N#Cc1nc(-c2cccs2)oc1NCCN1CCOCC1
-8% | O=C(NCCCN1CCOCC1)c1cc(S(=O)(=O)N2CCOCC2)ccc1Cl
-14% | O=c1oc2ccccc2c(NC2CCCCC2)c1NS(=O)(=O)c1ccc(Cl)cc1
6% | Cc1noc(C)c1COc1ccccc1C(=O)N(C)CC(=O)Nc1ccc(Cl)c(Cl)c1
16%&-10% | Cc1ccc(NC(=O)C2CCCN2S(=O)(=O)c2ccc3c(c2)n(C)c(=O)c(=O)n3C)cc1 (configuration not stated)

Next part:
VDR inhibitor | Molecule
-15% | S=c1[nH]nc(CSCc2ccccc2Cl)n1C1CCCCC1
-9% | Cc1cc(S(=O)(=O)NCc2ccc3c(c2)OCO3)ccc1F
0% | COc1ccc(-c2cc(=O)oc3cc(OCC(=O)NCCN4CCOCC4)ccc23)cc1
8% | CCOc1ccc(CCNC(=O)CN2CCN(Cc3ccc(F)cc3)C2=O)cc1OCC
3% | CC(C)C1Oc2ccccc2N(CC(=O)N(Cc2ccncc2)Cc2ccco2)C1=O (configuration not stated)
7% | COc1ccc(C(CCN(Cc2ccc(OC)c(OC)c2)C(C)=O)C(C)C)cc1 (configuration not stated)
-11% | COc1ccc2c(c1)-c1nc(NC(=O)c3cc(OC)c(OC)c(OC)c3)sc1CC2
-10% | CC1(C)Cc2nc3sc4c(=O)n(CC(=O)NCc5ccco5)cnc4c3cc2CO1
-6% | COc1ccccc1NC(=O)CN1CCN(CC(=O)Nc2ccc3c(c2)OCCO3)CC1
-19% | O=C(c1ccco1)c1cn(CC(=O)N2CCCCCC2)c2ccccc12
18% | Fc1ccc(Cn2nnc(-c3ccc(Cl)cc3)n2)cc1
-4% | O=C(O)C1CC(O)CN1S(=O)(=O)c1cccs1 (configuration not stated)
u | CC(C)[C@H](NC(N)=O)C(=O)NCCc1ccc(Cl)cc1Cl
-1% | Cc1[nH]c(C)c2c(=O)n(Cc3ccc(Cl)cc3)ncc12
3% | Cc1c(S(=O)(=O)N(C)C2CCCCC2)c(=O)n(C)c(=O)n1C
1% | COc1cc2c(cc1OC)C(c1ccccc1)N(C(=O)c1ccccc1F)CC2 (configuration not stated)
7% | CC(C)/C(O)=C1/C(=O)OC(c2ccoc2)[C@@]2(C)C(O)C(O)[C@@]34OC5(C)OC67CC(C)(C(O)[C@@]6(O)C(O)[C@@]3(O5)C12)C(CC(=O)O)[C@@]74C (some centres not stated)
6% | CCN(c1cccc(C)c1)S(=O)(=O)c1ccc2[nH]c(=O)c(=O)[nH]c2c1
-6% | Cc1ccc(S(=O)(=O)NC2=NCCC2)cc1
1% | CCc1c(C#N)c(SCc2c(C)noc2C)nc2c1C(=O)CC(C)(C)C2
u | COc1ccc(C(=O)NCCS(=O)(=O)N2CCCCCC2)cc1
-2%&14% | COc1ccc(CC(=O)NCCS(=O)(=O)N2CCN(c3ccc(F)cc3)CC2)cc1OC
-12% | CCSc1ccc(-c2ccco2)nn1
15% | O=C(NC1CCc2ccccc21)c1cc(COc2cncc(Cl)c2)on1 (configuration not stated)
-14% | N#Cc1ccc(COC(=O)CSc2nnc(N)s2)cc1
-7% | Cc1nn(CCCC(=O)Nc2c(F)cc(F)cc2Br)c(C)c1[N+](=O)[O-]
0% | COC(=O)N1CCC2(CC1)CCN(c1ncccn1)CC2
-3% | Cc1ccc(-c2nnn(CC(=O)N(CC(=O)NC3CCCCC3)c3cnc4ccccc4c3)n2)o1
-13% | CCn1nc(C)cc1C(=O)N1CCCC(Nc2ccc(F)c(F)c2)C1 (configuration not stated)
-5% | COc1ccc(C)cc1N(C(=O)c1snc(C(N)=O)c1N)C(C(=O)NC1CCCCC1)c1ccc(C)o1 (configuration not stated)
-27% | CN(C)CCNc1nc(S(=O)(=O)c2ccccc2)c(Cl)s1
8% | COc1cc(N)ccc1NC(=O)c1cc2ccccc2o1
-11% | Fc1ccccc1/C=N/NC(=S)Nc1ccc(Cl)cc1Cl
-25% | Cc1ccc(N2C(=O)Cc3ccccc3C2=O)cc1
10% | Cc1cc(N2CCOCC2)nc2ccc(NC(=S)N3CCN(c4ccccc4)CC3)cc12
19% | CC(C)Sc1nc2c(c(=O)n(C)c(=O)n2C)n1C
-25% | CCOc1ccc(Nc2nc(N3CCCC3)nc(N3CCN(c4ccc(OC)cc4)CC3)n2)cc1
-7% | COc1ccc(CCNc2nc3ccc(Cl)cc3n3cnnc23)cc1OC
14% | CCOC(=O)C1CCN(C(=O)CCc2c(C)nc3ncnn3c2C)CC1
-8% | CCOC(=O)N1CCN(S(=O)(=O)c2cccc3cccnc23)CC1
-6% | O=C(COc1ccccc1[N+](=O)[O-])N/N=C/c1ccc[nH]1
4% | CC1CCCCC12NC(=O)N(CC(=O)NCc1ccc3c(c1)OCO3)C2=O (configuration not stated)
1% | COc1cc(OC)cc(C(=O)NCC(=O)OCC(=O)Nc2ncc(Cl)cc2Cl)c1
0% | CC(C)NC(=O)NC(=O)CSc1ncccn1
3% | CCc1nc2sc3c(Cl)ncnc3c2c2c1CCCC2
-7% | CC(C)N1C(=O)CCC1C(=O)NCc1ccc(F)cc1Cl (configuration not stated)
19% | Cc1ccc(NC(=O)c2cnc(N3CCCCC3)c3ccccc23)c(C)c1
-4% | Cc1ccc2c(=O)cc(C(=O)Nc3nc4ccc(Cl)cc4s3)oc2c1C
9% | Cc1ccc2c(c1)c1ncn(CCC3=CCCCC3)c(=O)c1n2C
9% | CC(C)C(c1nnnn1Cc1ccco1)N1CCN(c2nc3ccccc3s2)CC1 (configuration not stated)
-2% | COc1ccc(-c2nc(-c3ccccc3)c(-c3ccccc3)[nH]2)cc1Br
12% | N#C/C(=C/c1ccco1)C(N)=S
7% | CCCCn1c(N)c(N(CC(C)C)C(=O)CCNC(=O)c2ccc(Br)cc2)c(=O)[nH]c1=O
-2% | CN1CCn2c1nc(N1CCOCC1)nc2=O
-10% | O=C(CNCc1ccc(F)cc1)Nc1ccc(S(=O)(=O)N2CCOCC2)cc1
7% | COc1ccc(/C=C(/NC(=O)/C=C/c2ccccc2)C(=O)N2CCOCC2)cc1

4 entries from above, as a markdown table.
| canonical_smiles | VDR inhibitor |
| --- | --- |
| COc1ccc(-c2nc(-c3ccccc3)c(-c3ccccc3)[nH]2)cc1Br | -2% |
| N#C/C(=C/c1ccco1)C(N)=S | 12% |
| CCCCn1c(N)c(N(CC(C)C)C(=O)CCNC(=O)c2ccc(Br)cc2)c(=O)[nH]c1=O | 7% |
| CN1CCn2c1nc(N1CCOCC1)nc2=O | -2% |

The main list resumes, repeating the 5 entries before the break.
VDR inhibitor | Molecule
12% | N#C/C(=C/c1ccco1)C(N)=S
7% | CCCCn1c(N)c(N(CC(C)C)C(=O)CCNC(=O)c2ccc(Br)cc2)c(=O)[nH]c1=O
-2% | CN1CCn2c1nc(N1CCOCC1)nc2=O
-10% | O=C(CNCc1ccc(F)cc1)Nc1ccc(S(=O)(=O)N2CCOCC2)cc1
7% | COc1ccc(/C=C(/NC(=O)/C=C/c2ccccc2)C(=O)N2CCOCC2)cc1
-2% | COc1ccc(N2CCN(C(=O)c3cc4c(=O)n(Cc5cccs5)ccc4nc3C)CC2)cc1
-13% | Clc1ccccc1-c1nnc(SCc2nc(-c3ccccc3)no2)n1-c1ccccc1
0% | COc1ccc2c(c1)c(=O)c(C(=O)c1ccccc1)cn2CC(=O)Nc1ccc2c(c1)OCCO2
11% | O=C(CCCCCCC(=O)c1ccccc1)c1ccccc1
17% | Cn1cc(CN2CCC(Oc3ccc(C(=O)N4CCCC4)cc3)CC2)cn1
-2% | CCN1CCCC(OC(=O)Nc2ccccc2)C1 (configuration not stated)
-2% | CCOc1ccc(/C=C2/Sc3ccc(C(=O)N4CCOCC4)cc3N(C)C2=O)cc1OC
-7% | O=S(=O)(c1ccccc1)c1nc(-c2ccccc2Cl)oc1N1CCCCCC1
-21% | Cc1cc(C)cc(NS(=O)(=O)c2ccc3c(c2)C(C)(C)C(=O)N3C)c1
-4% | Cc1cc(N2CCCC(C(=O)Nc3ccc4c(c3)CCC4)C2)n2ncnc2n1 (configuration not stated)
6% | COc1ccccc1Nc1nn2c(=O)c3ccc(C(=O)NC(C)c4ccccc4)cc3nc2s1 (configuration not stated)
-20% | CC(C)(C)c1cc(NC(=O)CSc2nnc(N)s2)n(-c2ccccc2)n1
7% | Cc1ccc(OCCNC(=O)c2ccccc2O)cc1
-4% | OCC1=C[C@@H](O)C2C=CO[C@@H](O[C@@H]3O[C@H](CO)[C@@H](O)[C@H](O)[C@H]3O)C12 (some centres not stated)
1% | CC1CCN(C(=O)CSc2nnc(-c3cccnc3)n2C2CCCCC2)CC1
14% | CN1N=C(/C=C/c2ccccc2)CCC1=O
3% | COc1ccc(/C=C(\NC(=O)c2ccc(C)cc2)C(=O)NCC2CCCO2)cc1 (configuration not stated)
-7% | COc1ccc(Oc2ncc3nc(-c4ccccc4)c(=O)n(Cc4cccs4)c3n2)cc1
-1%&-7% | CCc1ccccc1NC(=O)c1cc(-c2ccc3c(c2)OCO3)on1
-19% | CCOC(=O)Cn1c(=N)n(CCOc2ccc(F)cc2)c2ccccc21
14% | Cc1ccn2c(C(=O)N/N=C/c3ccc(Cl)cc3)c(C)nc2c1
-7% | COc1ccc2c(c1)CCC/C2=N/OC(=O)c1ccccc1OC
0% | COc1cc(OC)cc(C(=O)N[C@H](C(=O)Nc2nc(-c3ccc(F)c(F)c3)cs2)C(C)C)c1
-2% | CCC/C(C)=C/c1ccc(CC)cn1
-6% | Cc1ccc(OCC(=O)NN=C2c3ccccc3-c3ccccc32)cc1
7% | Cc1ccc(-n2nc(C)cc2Nc2ncc(Cl)cc2Cl)cc1
5% | CC(=O)N1c2ccccc2CC1C(=O)N1CCN(c2cccc(Cl)c2)CC1 (configuration not stated)
13% | Cc1ccc2nc(Nc3cccc(C(F)(F)F)c3)c3nnnn3c2c1
-21% | CC(C)c1ccc(Nc2nnc(SCC(=O)c3nnc(-c4ccccc4)o3)s2)cc1
-4% | CCCCCC1CCC(C(=O)O)CC1 (configuration not stated)
32µM* | COc1ccc(C(C[N+](=O)[O-])C2(c3ccc(OC)c(OC)c3)C(=O)c3ccccc3C2=O)cc1 (configuration not stated)
4% | CCCNC(=O)Cc1c(O)c2ccccc2[nH]c1=O

3 entries from above, arranged by the value under VDR inhibitor, smallest number first.
VDR inhibitor | Molecule
4% | CCCNC(=O)Cc1c(O)c2ccccc2[nH]c1=O
5% | CC(=O)N1c2ccccc2CC1C(=O)N1CCN(c2cccc(Cl)c2)CC1 (configuration not stated)
13% | Cc1ccc2nc(Nc3cccc(C(F)(F)F)c3)c3nnnn3c2c1
